LT uptake inh: qHTS Assay for Anthrax Lethal Toxin Internalization | Potency, µM (top dose mostly 40 µM), inactives show at the highest dose activity change, negative = inhibition, hits mostly inhibitors | 70,000 compounds, 0.67% hits | Cells, anthrax lethal toxin internalization, FRET ratio (460/530); active = well fitted falling ratio curve with the 530 nm signal flat; inconclusive = other ratio curves, or a change in one channel alone; inactive = flat curves in the ratio and both channels; the % refers to the ratio; also: % is scaled to controls: 0 for no effect and ±100 for the full control effect; nearly all actives have a fitted effect of over 50% in size; tested in ME-180 cells; beta-lactamase reporter
SmPrx2 inh: Schistosoma Mansoni Peroxiredoxins (Prx2); Schistosoma mansoni peroxiredoxin 2 (Prx2); S. mansoni Prx2 activity coupled to TGR/GSH (TGR is thioredoxin glutathione reductase), NADPH fluorescence loss, qHTS; some inactives read as strong as hits; Potency, µM; 65,000 compounds, 0.07% hits; AID 448, 2006; active means full or partial inhibition curve with a strong effect at the top dose; inconclusive means weaker partial or single-point curve; inactive means no accepted curve; also: series up to 57 µM; many of its hits are not listed in these tables
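qHTS, coupled TGR/Prx2 format; 15 min compound preincubation at RT; reaction started with H2O2 (2.5 mM aliquot); kinetic NADPH fluorescence decrease, ex 365/em 450 nm.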
An asterisk follows results filed as active; u = inconclusive; x = no result given; [ ] = dose if it differs, or a comment. Potency is read from the fitted curve at half-maximal effect. An excerpt; rates above refer to the full screens.

Every second line gives: LT uptake inh | SmPrx2 inh
CCC(C)(C)n1nnnc1C(c1ccc(N(C)C)cc1)N1CCN(C2CCCCC2)CC1 (centres undefined)
  -10% | >57
COc1cc(OC)nc(NC(=O)C(C)C)n1
  -9% | >57
CCc1nc(SCC(N)=O)c2c(=O)n(C)c(=O)n(C)c2n1
  18% | >57
O=C(CSc1nc2ccsc2c(=O)n1NC(=O)c1ccccc1)NCc1ccco1
  -1% | >57
COC(=O)c1ccccc1COn1c(=O)c(C)[n+]([O-])c2ccccc21
  -4% | >57
CCN(CC)CCCNC(=O)Cn1ncc2c(=O)oc3ccc(C)cc3c21
  0% | >57
O=S(=O)(O)c1ccc2cc(N=Nc3cc(S(=O)(=O)O)c4cccnc4c3O)ccc2c1
  -10%[8 µM] | >57
O=C(c1cc2c(=O)oc3ccccc3c2s1)N1CCOCC1
  11% | >57
O=C(CC1OC(=O)c2ccccc21)NC1CCCCC1 (centres undefined)
  u | >57
O=C(c1ccccc1)N1CCCOC1c1ccccc1 (centres undefined)
  -8% | >57
COc1cccc(C2C(C(N)=O)=C(C)Nc3nc(CCCO)nn32)c1OC (centres undefined)
  7% | >57
O=S1(=O)CCC(NCC2CCCO2)C1 (centres undefined)
  4% | >57
COc1ccc(C(=O)NCc2cn3ccsc3n2)cc1OC
  8% | >57
Cc1oc(-c2ccc(Cl)cc2)[n+]([O-])c1C
  0% | >57
CCN1C(=O)C(CC(=O)NCc2ccc(Cl)cc2)N(CC)C1=O (centres undefined)
  -2% | >57
CC1CCC2C(=O)N3C(CCC(C)[C@@H]3c3cccc(N4CCOCC4)c3)C(=O)N2C1c1cccc(N2CCOCC2)c1 (some centres undefined)
  -9%[8 µM] | x
COc1cc2c(cc1OC)-c1cc(NC3CCCCCC3)nc(=O)n1CC2
  9% | >57
Cc1csc2nc(CSc3ccc(Cl)cc3)cn12
  u | >57
COc1ccc(N2Cc3cccc(C(=O)N4CCN(C(=O)c5ccco5)CC4)c3C2=O)cc1
  1% | >57
CC1CCN(C(=O)C2CCN(C(=O)c3cc4sccc4n3Cc3ccc(F)cc3)CC2)CC1
  -28% | >57
O=C(NCC(c1cccnc1)N1CCN(c2ccccc2F)CC1)c1cccc(Cl)c1 (centres undefined)
  -5% | >57
COC(=O)c1cc(Br)c(=O)n(Cc2ccncc2)c1
  10% | >57
CC(=O)Nc1ccc(NC(=O)c2ccccc2N(C)S(C)(=O)=O)cc1
  u | >57
C=CCn1c(SCc2csc(C)n2)nc2sc3c(c2c1=O)CCCCC3
  -26% | >57
O=C(c1ccccc1)N(CCN1CCOCC1)C1(C(=O)Nc2ccccc2)CCCCC1
  -13% | >57
O=C(NCc1ccccc1)c1cccc(NC(=O)c2ccco2)c1
  u | >57
Cc1ccc(NC(=O)C(C)N2C(=O)C3CC=C(Cl)CC3C2=O)cc1 (centres undefined)
  3% | >57
COC(=O)c1nnn(-c2ccccc2)c1N
  22% | >57
C[C@@](N)(C(=O)O)c1ccc(S(=O)(=O)O)cc1
  -3% | >57
CCC(=O)n1nc(-c2ccccc2)nc1NCc1ccccc1
  6% | >57
O=C(NCc1cccs1)C1CCN(c2nc3ccccc3o2)CC1
  1% | >57
O=C(COC(=O)C1(c2ccccc2)CC1)N1CCN(c2ccc(F)cc2)CC1
  -19% | >57
O=C(NCc1cn2ccsc2n1)Nc1cccc(Cl)c1
  5% | >57
O=C(O)C1CCCCC1C(=O)Nc1cnn(Cc2ccccc2)c1 (centres undefined)
  -27% | >57
CC1(C)CC(=O)C2=C(C1)Nc1[nH]n(-c3ccccc3)c(=O)c1C2c1ccc2c(c1)OCO2 (centres undefined)
  4% | >57
CCOC(=O)c1ccc(Cn2cnc3ccccc3c2=O)cc1
  -5% | >57
COc1cc(NS(=O)(=O)c2ccc(NC(=O)COc3ccccc3C)cc2)nc(OC)n1
  -12% | >57
N[C@@H]1C=CC=C(C(=O)O)C1
  7% | >57
Cn1ccnc1SC(=O)N1c2ccccc2Sc2ccccc21
  -21% | x
CCCCn1c(SCC(=O)N2CCC(C(=O)OCC)CC2)nc2cc(S(N)(=O)=O)ccc21
  4% | >57

Quoted from the listing:
Cn1ccnc1SC(=O)N1c2ccccc2Sc2ccccc21 in LT uptake inh has -21%
O=C(NCc1ccccc1)c1cccc(NC(=O)c2ccco2)c1 in SmPrx2 inh has >57

Next records.
Every second line gives: LT uptake inh | SmPrx2 inh
OC(COc1c(Cl)cc(Cl)cc1Cl)CN1CCCCC1 (centres undefined)
  u | >57
O=C(Nc1ccc2c(c1)C(=O)N(C1CCCCC1)C2=O)C1CCCO1 (centres undefined)
  -16% | >57
CC(C)(C)OCC1CO1 (centres undefined)
  -1% | x
O=C(O)C1CCCCC1C(=O)OCCCCOC(=O)C1CCCCC1C(=O)O (centres undefined)
  -17% | x
CCn1c(SCC(=O)c2cccs2)nnc1-c1ccco1
  -6% | >57
COc1nnc(OC)c2ccccc12
  6% | >57
COc1cccc(Cn2c(=S)[nH]c3ccc(N4CCOCC4)cc3c2=O)c1
  u | x
O=C(C1CCC(=O)N1Cc1cccnc1)N1CCN(c2ccc(F)cc2)CC1 (centres undefined)
  -7% | >57
CCN(CC)S(=O)(=O)c1cccc(-c2nnc(SCC(=O)c3cc(C)n(C)c3C)o2)c1
  -4% | >57
CCCS(=O)(=O)NCCc1cc2c(OC)ccc(OC)c2[nH]c1=O
  21% | >57
Cc1cc(NC(=O)CCCC(=O)N(CC(=O)NC2CCCCC2)c2ccccc2)no1
  u | >57
O=C(Nc1nc2ccccc2n1CCN1CCCCC1)c1ccco1
  -6% | >57
CCC(=O)Nc1ccc(C(=O)Cn2nc(C(=O)O)c3ccccc3c2=O)cc1
  2% | >57
COc1ccc(CC(=O)OCC(=O)Nc2c(C)n(C)n(-c3ccccc3)c2=O)cc1
  -4% | >57
Cc1cc2cc(CNC(=O)CC(C)C)ccc2n1C
  -9% | >57
O=C(CSc1nc2c(sc3ccccc32)c(=O)n1Cc1ccco1)NCC1CCCO1 (centres undefined)
  u | >57
Cc1ccccc1C(=O)NC1CC(C)(C)NC(C)(C)C1
  -6% | >57
COC(=O)c1cc(OC)c(OC)cc1NC(=O)C1CCC(=O)N1S(=O)(=O)c1ccc(C)cc1 (centres undefined)
  6% | >57
Cc1oc(-c2ccc(Cl)cc2)nc1CN1CCC(C(=O)NCc2cccnc2)CC1
  -1% | >57
c1ccc2c(-n3cccn3)cccc2c1
  3% | >57

Compound profiles (already shown):
O=C(CSc1nc2c(sc3ccccc32)c(=O)n1Cc1ccco1)NCC1CCCO1 (centres undefined) in the list: LT uptake inh = u; SmPrx2 inh = >57
COC(=O)c1nnn(-c2ccccc2)c1N in the list: LT uptake inh = 22%; SmPrx2 inh = >57
CC(C)(C)OCC1CO1 (centres undefined) in the list: LT uptake inh = -1%; SmPrx2 inh = x

(continued)
Every second line gives: LT uptake inh | SmPrx2 inh
CCOc1ccccc1N(CC(=O)Nc1ccc(C)cc1)S(C)(=O)=O
  5% | x
CCOC(=O)c1[nH]c(C)c(C(=O)N(C)Cc2ccccc2)c1C
  -3% | >57
COc1ccc(N2CCN(C(=O)Cc3nn(C)c(=O)c4ccccc34)CC2)cc1
  -14% | >57
O=C(Nc1nnc(COc2ccccc2)s1)c1ccco1
  -1% | >57
Cc1cc(C)n(-c2ccc(C(=O)OCn3nnc4ccccc4c3=O)cc2)n1
  -4% | >57
O=C(Nn1cnnc1)c1ccccc1-c1ccccc1
  u | >57
CC(=O)Nc1cccc(Oc2nc(C)cc(C)c2C#N)c1
  -19% | >57
O=C(CN1CCN(CCC(=O)Nc2ccccc2F)CC1)Nc1ccc(Cl)cc1
  0% | >57
O=C(NC1CCCC1)C(c1ccccn1)N(C(=O)c1csnn1)C1CC1 (centres undefined)
  -2% | >57
CC1(C)Cc2noc(N)c2C(C)(C)N1OC(=O)c1scc2c1OCCO2
  14% | >57
O=C(NCc1cccnc1)c1cccc(C(F)(F)F)c1
  -15% | >57
O=C(Cn1[nH]c(=O)c2ccccc2c1=O)Nc1cccc(-c2nnc3n2CCCCC3)c1
  -18% | >57
N#CC(C#SN)=C1CCCCC1
  x | >57
N#CCn1c(C2CCCCC2)nc2ccccc2c1=O
  1% | >57
Cc1ccc2oc(-c3ccc(NC(=O)CC(C)C)cc3)nc2c1
  -6% | x
CCCCN(CC)CCNS(=O)(=O)c1cccc2cccnc12
  -26% | >57
CNC(=O)CCC(=O)Nc1ccc(C(=O)OC)cc1
  -7% | >57
Cc1cnc(NC(=O)CN2CCN(c3ccccn3)CC2)s1
  u | >57
N#Cc1nc(COc2ccc(Br)cc2)oc1NCCCn1ccnc1
  u | >57
CC[C@@H](C)[C@H]1O[C@]2(CC[C@@H]1C)C[C@@H]1C[C@H](C/C=C(/C)[C@H](O[C@@H]3C[C@H](OC)[C@H](O[C@@H]4C[C@H](OC)[C@@H](O)[C@H](C)O4)[C@H](C)O3)[C@@H](C)/C=C\C=C3CO[C@@H]4[C@H](O)C(C)=C[C@@H](C(=O)O1)[C@]34O)O2 (tested in a mixture with another compound)
  u | >57
CCCc1cc(C(=O)Nc2cc(C)nn2-c2ccccc2)no1
  -15% | >57
Cc1nc(NC(C)c2ccccc2)c2oc3ccccc3c2n1 (centres undefined)
  x | >57
COc1ccc(Nc2nccc3c2nnn3C)cc1
  5% | >57
CCOC(=O)N1CC=C2C(C#N)=C(N)C(C#N)(C#N)[C@H](c3ccccc3OCC)[C@H]2C1
  -7% | >57
CN1CCN(C2=C(Cl)C(=O)N(c3cccc(Cl)c3)C2=O)CC1
  0% | x
Cc1cc2c(C)nc(-c3ccccc3)nc2o1
  3% | >57
OCCCCNc1cccc2ccccc12
  u | >57
CCOC(=O)Cn1c(=O)c2c(nc3n2CCCCN3c2ccc(C)cc2)n(C)c1=O
  16% | >57
Cc1noc(/C=C/c2ccco2)c1S(=O)(=O)N1CCC(C(=O)NCc2ccco2)CC1
  -22% | >57
COC(=O)CCc1c(C)c(C#N)c2nc3ccccc3n2c1N1CCCC1
  x | >57
CCCCn1c(CCNC(=O)CC)nc2ccccc21
  -2% | >57
COc1ccc2oc(C)c(C(N)=O)c2c1
  -2% | >57
CCOC(=O)C1=C(N)N2C(=O)C(C)SC2=C(C(=O)OC)C1c1ccccc1OC (centres undefined)
  x | >57
C=CC[C@@H]1C=C[C@@H](O/N=C(/C)CCC(=O)OC[C@@H]2O[C@H](c3ccccc3)C=C[C@@H]2Oc2ccc(OC)cc2)[C@@H](CO)O1
  -6%[8 µM] | x
CCOC(=O)C1=C(CN2CCN(c3ccc(F)cc3)CC2)NC(=O)NC1c1cccs1 (centres undefined)
  3% | >57
O=C(O)C1CCCCC1C(=O)Nc1ccc2c(c1)OCCO2 (centres undefined)
  7% | x
O=Cc1ccc(Cl)cc1
  2% | x
CC12CN3CC(C)(CN(C1)C3c1ccco1)C2=O (centres undefined)
  -8% | >57
COc1ccccc1C(=O)N(CN1CCCC1=O)c1cccc(Cl)c1
  -21% | >57
CCC(CC)C(=O)Nc1cc(C(=O)OC)cc(C(=O)OC)c1
  13% | >57
COc1ccc(CCNC(=O)CC2Nc3ccccc3NC2=O)cc1 (centres undefined)
  1% | >57
CCC1(C)Cc2c(sc3c2c(=O)n(C)c2nnc(SCCc4ccccc4)n32)CO1 (centres undefined)
  13% | x
COc1ccc(CN2CCN(C(=O)c3cc(OC)c(OC)c(OC)c3)CC2)cc1OC
  u | x
O=c1cc(CSc2nnc(COc3ccccc3Cl)o2)nc2sccn12
  -2% | >57
CCOC(=O)C1=C(C)N(C)C(=O)NC1c1ccc(C)s1 (centres undefined)
  1% | >57
Cc1ccc(CNC(=O)C2CCN(S(=O)(=O)c3cccs3)CC2)o1
  -14% | >57
CCCCN(CC)C(=O)CN(C)S(=O)(=O)c1cccc2nsnc12
  17% | >57
CC(=O)N1CCc2cc(S(=O)(=O)NC(CC(C)C)C(=O)N3CCn4c3nc3ccccc34)ccc21 (centres undefined)
  u | >57
COc1cc(C)c(S(=O)(=O)Nc2ccc(CC(=O)O)cc2)cc1C
  11% | >57
CCC(=O)N1CCc2cc(S(=O)(=O)NCCCN(CC)Cc3ccccc3)ccc21
  -6% | >57

(list continues)
Every second line gives: LT uptake inh | SmPrx2 inh
CN(C)C(=O)c1ccc(-c2cc(N(C)Cc3ccco3)ncn2)cc1
  3% | >57
c1ccc(-c2csc3nnc(SCc4ccc5c(c4)OCCO5)n23)cc1
  15% | >57
CCc1ccc(CNc2ccc(N3CCN(C(C)=O)CC3)cc2)cc1
  -11% | >57
COc1ccc(-c2cc(CCCC(=O)NCc3ccccn3)no2)cc1
  -14% | >57
CC(C)(C)NC(=O)C(c1ccccc1)N(Cc1ccco1)C(=O)c1csnn1 (centres undefined)
  8% | >57
N[C@@H](Cc1cnc[nH]1)C(=O)O
  2% | >57

Screening results from PubChem BioAssay.
